ALR H2O2 inh: human ALR oxidase inhibition via reduced H2O2; P55789; purified ALR, DTT oxidation, H2O2 HRP-luminol luminescence; inhibition, % (concentration not given with the values); hit rate 3.8% among 290,000; AID 485317;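 active = mean and each replicate at 75% or more; inconclusive = only one of the two met; inactive = neither met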;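 note: stock transfer was 7.5 nL into about 7.5 µL; 0% = neutral wells and 100% = wells with inactivated enzyme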
Calb FLC: C. albicans growth modulation with fluconazole | C. albicans CaCi-2 (fluconazole-resistant clinical isolate) + fluconazole, Alamar Blue growth, 48 h | growth inhibition, % (concentration not given with the values) | hit rate 0.57% among 300,000;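 active = most replicates above 75%; inconclusive = exactly half above 75%; inactive = most below 75%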;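 note: all wells also contain fluconazole at 8 µg/ml as a sub-toxic cotreatment; 0% = median of DMSO wells and 100% = median of geldanamycin control wells; wells of about 8 µL received 7.5 nL stock; the first replicate is given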
RanGTP-Imp inh: inhibitors of RanGTP-importin-beta interaction, primary screen, biochemical, FRET, CFP-Ran, YFP-importin-beta, homogeneous; inhibition, % (test concentration not listed); hit rate 1.1% among 300,000; cell-free CFP-Ran/YFP-importin-beta FRET ratio;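 active = most replicates above 15%; inconclusive = exactly half above 15%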;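 note: 0% = DMSO wells and 100% = Ran loaded with GDP instead of GTP; wells of about 40 µL received 100 nL stock; the first replicate is given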
LANA-H2B inh: blocks KSHV LANA binding to histone H2A/H2B; cell-free LANA-H2A/H2B peptide, fluorescence polarization; hit rate 0.6% among 320,000; inhibition, % (no concentration beside the values); Q9QR71; in the data active = inhibition mostly above about 10%, no sharp cut-off; inactive = mostly below about 6.7%;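 note: stock transfer was 7.5 nL into about 10 µL; 0% = median of vehicle wells and 100% = median of positive control wells; one replicate is shown; the record names a cut of 25% in any replicate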
B2AR ag: agonists of human beta-2 adrenergic receptor inducing internalization. Am2.2-beta2AR cells, FAP receptor internalization, flow cytometry; reference of the scale not given here. P07550. response, % (concentration not given with the values). hit rate 0.43% among 340,000. AID 504454;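 active = response above a set limit, near 3 SD of response in nonfluorescent compounds, cut at about 42% in these data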;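 note: stock transfer was 100 nL into about 11 µL; a reference agonist was the positive control; negative values mostly stem from fluorescent compounds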
Target sequence (P07550 whole entry, looked up): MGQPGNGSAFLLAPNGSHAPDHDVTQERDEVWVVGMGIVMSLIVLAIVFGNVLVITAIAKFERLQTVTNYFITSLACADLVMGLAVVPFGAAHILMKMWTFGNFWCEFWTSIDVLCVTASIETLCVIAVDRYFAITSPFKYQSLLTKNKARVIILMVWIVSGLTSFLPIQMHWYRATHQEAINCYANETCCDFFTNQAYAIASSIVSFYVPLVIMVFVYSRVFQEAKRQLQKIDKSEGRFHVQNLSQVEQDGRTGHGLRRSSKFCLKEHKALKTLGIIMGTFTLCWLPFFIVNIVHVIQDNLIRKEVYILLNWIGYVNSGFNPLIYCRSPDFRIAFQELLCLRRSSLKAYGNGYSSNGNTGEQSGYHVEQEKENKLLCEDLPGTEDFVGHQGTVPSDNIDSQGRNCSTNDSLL
Vif A3G: HIV-1 Vif–A3G interaction blockers – biochemical, TR-FRET, GST-Vif 1-94, biotin-A3G peptide, dose response retest, primary screen (AID 1117319); TR-FRET GST-Vif / biotin-A3G peptide binding; higher % means a stronger effect; test concentration not given here; strong numbers were not always called active; inhibition, %; hits with a dose series show IC50 in µM; hit rate 0.57% among 260,000;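 active = above the screen mean plus three standard deviations and confirmed in dose response; inconclusive = results disagree or hit not tested in dose response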;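 note: Vif residues 1-94 fused to GST binding biotinylated APOBEC3G peptide 110-148; 0% = full assay without inhibitor and 100% = GST in place of GST-Vif; retest series ran down from 100 µM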
HNF4A DNA FP: change in binding of human HNF4 alpha to DNA; HNF4a-FITC DNA binding, fluorescence polarization, 1 h; hit rate 0.3% among 360,000; AID 1224865; P41235; activity change, % at 10 µM; in the data active = activity change above about 30%, passing the limit was not always enough;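 note: controls were the assay level and a saturating level of protein; the project sought stronger binding though the title names inhibitors; some compounds called inactive have numbers as strong as hits; positive values seem to mean higher polarization but the record does not say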
Target sequence (P41235 whole entry, looked up): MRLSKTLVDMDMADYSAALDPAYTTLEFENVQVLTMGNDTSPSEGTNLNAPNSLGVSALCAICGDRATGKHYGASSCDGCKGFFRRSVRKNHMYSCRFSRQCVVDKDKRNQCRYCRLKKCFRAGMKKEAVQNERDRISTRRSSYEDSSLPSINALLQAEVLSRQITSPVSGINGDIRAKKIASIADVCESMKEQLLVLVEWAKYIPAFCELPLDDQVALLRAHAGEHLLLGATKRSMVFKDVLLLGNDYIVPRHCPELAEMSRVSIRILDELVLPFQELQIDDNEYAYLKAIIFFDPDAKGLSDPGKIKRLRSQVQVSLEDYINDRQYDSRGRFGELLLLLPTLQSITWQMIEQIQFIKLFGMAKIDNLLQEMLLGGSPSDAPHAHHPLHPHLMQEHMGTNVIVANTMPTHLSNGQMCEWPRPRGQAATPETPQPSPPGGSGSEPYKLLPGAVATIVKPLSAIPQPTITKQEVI
Numbers without * were called inactive; ? = inconclusive; . = no result given.

Order of results: ALR H2O2 inh | Calb FLC | RanGTP-Imp inh | LANA-H2B inh | B2AR ag | Vif A3G | HNF4A DNA FP
1) Cc1cccc(OCC(=O)Nc2cccc(O)c2)c1
  -13 | -25 | 6.8 | 0.1 | 1 | 4% | 1.1
2) COc1ccc(C(c2c(NC(C)=O)sc3c2CCCC3)N2CCN(CCO)CC2)cc1OC (centres undefined)
  0 | -2 | 6.2 | -0.2 | 2 | -2% | 3.8
3) COc1ccc(C2=NOC(Cn3nc(-c4ccccc4)cc3C(=O)NCc3ccccc3OC)C2)cc1 (centres undefined)
  5 | . | . | 12 | -1 | . | 1.9
4) O=C(COC(=O)c1cccs1)c1ccc2ccccc2c1
  . | 9 | -0.9 | 2.2 | 1 | -1% | 0.1
5) S=c1nc[nH]c2c1sc1nc(N3CCOCC3)c3c(c12)CCCC3
  . | 47 | 1.0 | 3.4 | 2 | -20% | 0.3
6) CN(C(=O)c1cccc(NC(=O)Cc2ccc(NC(=O)C3CCCN(C(=O)C4CCCC4)C3)cc2)c1)C1CCC1 (centres undefined)
  . | . | . | . | 2 | -6% | 2.4
7) Cn1c(O)c(N=Nc2ccccc2[N+](=O)[O-])c2ccccc21
  -7 | -10 | 3.3 | -1.8 | -12 | . | 3.4
8) CCc1n(CC(O)COCC2CC=CCC2)c2ccccc2[n+]1C (centres undefined)
  . | -34 | -0.2 | 8.5 | 6 | . | 2.9
9) O=C1C=CC(O)(c2cc(=O)c3c(O)cc(O)cc3o2)C=C1
  63 | 8 | 6.8 | -0.7 | 45* | ? | -4.0
10) CC(=O)Nc1ccc(S(=O)(=O)N2CCN(Cc3cccc([N+](=O)[O-])c3)CC2)cc1
  -3 | 12 | -1.3 | -1.8 | 7 | -2% | 2.6
11) O=C(CCC1CCCN(C(=O)c2ccc(F)c(F)c2)C1)N1CCN(c2ccccn2)CC1 (centres undefined)
  1 | 3 | 2.9 | 3.3 | 1 | . | -0.9
12) CCOc1ccccc1/C=C/c1nc2ccccc2[nH]c1=O
  -2 | 8 | 71* | 1.7 | 6 | . | 3.8
13) COCCN(Cc1cc2ccc(C)cc2[nH]c1=O)S(=O)(=O)c1ccccc1
  -4 | -8 | 1.5 | 0.8 | -4 | . | 4.3
14) O=C(O)c1ccccc1C(=O)NCc1c(Cl)cccc1Sc1ccc(Cl)cc1
  0 | -7 | 5.7 | 3.2 | -3 | 2% | 0.2
15) Cc1ccn2cc(C(=O)NCc3ccco3)nc2c1
  -1 | -1 | 0.9 | 5.0 | -6 | 1% | -1.3
16) CCN(CC)CCOC(=O)c1cc(Cl)c(N)cc1OC
  -8 | . | . | -0.6 | -24 | . | -3.6
17) O=C(Cc1ccccc1F)Nc1cc(S(=O)(=O)N2CCCC2)ccc1Cl
  -12 | . | . | 3.2 | 0 | -7% | -0.3
18) O=C1NC(=S)S/C1=C\c1ccc(SCc2ccco2)o1
  99* | . | . | -1.2 | 1 | 0.81µM* | -21
19) CC(C)(C)NC(=O)Cn1nnc(-c2ccc(S(C)(=O)=O)cc2)n1
  -10 | 0 | 1.1 | 3.4 | 4 | 1% | 3.5
20) CN(C)S(=O)(=O)c1cc(NC(=O)CN2CCN(c3ccccc3F)CC2)ccc1Cl
  3 | -2 | 2.0 | -4.7 | -7 | ? | 6.1
21) CCN1C(=O)N(C)C(N(O)C(=O)NC)C1(C)C (centres undefined)
  . | 0 | 3.6 | -2.4 | -1 | -1% | 2.0
22) COc1ccc(CCNC(=O)CSc2ccccc2)cc1OC
  . | 5 | -0.3 | -0.7 | -6 | . | 0.7
23) CCCN(CCC)c1nc(-c2ccccn2)nc2ccccc12
  4 | -4 | 0.5 | 1.0 | -13 | -8% | -1.6
24) Cc1cc(C)nc(NC(=O)C2c3ccccc3Oc3ccccc32)n1
  -8 | -1 | -0.4 | -0.5 | -5 | -9% | 2.0
25) Cc1ccc(NC(=S)N/N=C2\CC3CC=CC23)c(C)c1 (centres undefined)
  44 | 2 | 4.8 | 1.0 | 10 | -5% | -3.8
26) Cc1ccccc1NC(=O)NC1(C(=O)N2CCC(C(N)=O)CC2)CCCCC1
  -2 | 7 | 0.8 | -3.3 | -3 | . | 0.9
27) O=C(CSc1nncs1)Nc1ccc(S(=O)(=O)N2CCCC2)cc1
  -4 | -35 | -3.3 | 2.7 | -2 | 5% | -1.0
28) Cc1nc(SCc2ccc(O)c([N+](=O)[O-])c2)c([N+](=O)[O-])[nH]1
  47 | -3 | 0.2 | 0.9 | -3 | -11% | 0.1
29) CCc1ccc(OCCCCCn2ccnc2)cc1
  26 | -1 | -0.9 | 4.9 | 1 | . | 3.1
30) CN1CCN(S(=O)(=O)c2ccccc2)CC1
  -14 | 0 | -0.4 | -5.8 | -3 | . | -1.2

Part of the list above in order of SMILES length, ascending:
Order of results: ALR H2O2 inh | Calb FLC | RanGTP-Imp inh | LANA-H2B inh | B2AR ag | Vif A3G | HNF4A DNA FP
18) O=C1NC(=S)S/C1=C\c1ccc(SCc2ccco2)o1
  99* | . | . | -1.2 | 1 | 0.81µM* | -21
17) O=C(Cc1ccccc1F)Nc1cc(S(=O)(=O)N2CCCC2)ccc1Cl
  -12 | . | . | 3.2 | 0 | -7% | -0.3
10) CC(=O)Nc1ccc(S(=O)(=O)N2CCN(Cc3cccc([N+](=O)[O-])c3)CC2)cc1
  -3 | 12 | -1.3 | -1.8 | 7 | -2% | 2.6

(list continues)
Order of results: ALR H2O2 inh | Calb FLC | RanGTP-Imp inh | LANA-H2B inh | B2AR ag | Vif A3G | HNF4A DNA FP
31) Cc1ccc(S(=O)(=O)NNC(=O)CCC(=O)Nc2ccccc2Cl)cc1
  4 | -17 | . | 6.3 | -2 | . | 0.0
32) COc1ccc(C(C(=O)NC2CCCCC2)N(C(=O)c2ccco2)c2ccc(-n3cnnn3)c(C)c2)cc1 (centres undefined)
  -4 | -7 | 0.2 | 6.8 | 3 | . | 0.3
33) CCOC(=O)C1=C(C)N2C(=C(C#N)[C@@H]1c1ccc(C(=O)OC)cc1)SC[C@@]2(O)C(C)(C)C
  -10 | 12 | -1.8 | -1.0 | -4 | 6% | 3.3
34) COc1ccccc1NC(=O)NCCCN1CCN(c2cccc(Cl)c2)CC1
  5 | -2 | 0.1 | 0.5 | 14 | 0% | 0.8
35) COCCCn1c(SCC(=O)NC2CCCCC2)nnc1-c1ccncc1
  -12 | -14 | 3.1 | 1.7 | 6 | 3% | -1.3
36) CCOc1ccc(NC(=O)NC2CCS(=O)(=O)C2)cc1 (centres undefined)
  0 | 15 | 5.8 | -4.8 | 1 | -2% | -0.4

Rewritten screen by screen: part of the list above
[20] CN(C)S(=O)(=O)c1cc(NC(=O)CN2CCN(c3ccccc3F)CC2)ccc1Cl
[21] CCN1C(=O)N(C)C(N(O)C(=O)NC)C1(C)C (centres undefined)
[22] COc1ccc(CCNC(=O)CSc2ccccc2)cc1OC
[23] CCCN(CCC)c1nc(-c2ccccn2)nc2ccccc12
[24] Cc1cc(C)nc(NC(=O)C2c3ccccc3Oc3ccccc32)n1
[25] Cc1ccc(NC(=S)N/N=C2\CC3CC=CC23)c(C)c1 (centres undefined)
[26] Cc1ccccc1NC(=O)NC1(C(=O)N2CCC(C(N)=O)CC2)CCCCC1
[27] O=C(CSc1nncs1)Nc1ccc(S(=O)(=O)N2CCCC2)cc1
screen / no. | 20 | 21 | 22 | 23 | 24 | 25 | 26 | 27
ALR H2O2 inh | 3 | . | . | 4 | -8 | 44 | -2 | -4
Calb FLC | -2 | 0 | 5 | -4 | -1 | 2 | 7 | -35
RanGTP-Imp inh | 2.0 | 3.6 | -0.3 | 0.5 | -0.4 | 4.8 | 0.8 | -3.3
LANA-H2B inh | -4.7 | -2.4 | -0.7 | 1.0 | -0.5 | 1.0 | -3.3 | 2.7
B2AR ag | -7 | -1 | -6 | -13 | -5 | 10 | -3 | -2
Vif A3G | ? | -1% | . | -8% | -9% | -5% | . | 5%
HNF4A DNA FP | 6.1 | 2.0 | 0.7 | -1.6 | 2.0 | -3.8 | 0.9 | -1.0

[28] Cc1nc(SCc2ccc(O)c([N+](=O)[O-])c2)c([N+](=O)[O-])[nH]1
[29] CCc1ccc(OCCCCCn2ccnc2)cc1
[30] CN1CCN(S(=O)(=O)c2ccccc2)CC1
[31] Cc1ccc(S(=O)(=O)NNC(=O)CCC(=O)Nc2ccccc2Cl)cc1
[32] COc1ccc(C(C(=O)NC2CCCCC2)N(C(=O)c2ccco2)c2ccc(-n3cnnn3)c(C)c2)cc1 (centres undefined)
[33] CCOC(=O)C1=C(C)N2C(=C(C#N)[C@@H]1c1ccc(C(=O)OC)cc1)SC[C@@]2(O)C(C)(C)C
[34] COc1ccccc1NC(=O)NCCCN1CCN(c2cccc(Cl)c2)CC1
[35] COCCCn1c(SCC(=O)NC2CCCCC2)nnc1-c1ccncc1
screen / no. | 28 | 29 | 30 | 31 | 32 | 33 | 34 | 35
ALR H2O2 inh | 47 | 26 | -14 | 4 | -4 | -10 | 5 | -12
Calb FLC | -3 | -1 | 0 | -17 | -7 | 12 | -2 | -14
RanGTP-Imp inh | 0.2 | -0.9 | -0.4 | . | 0.2 | -1.8 | 0.1 | 3.1
LANA-H2B inh | 0.9 | 4.9 | -5.8 | 6.3 | 6.8 | -1.0 | 0.5 | 1.7
B2AR ag | -3 | 1 | -3 | -2 | 3 | -4 | 14 | 6
Vif A3G | -11% | . | . | . | . | 6% | 0% | 3%
HNF4A DNA FP | 0.1 | 3.1 | -1.2 | 0.0 | 0.3 | 3.3 | 0.8 | -1.3

[36] CCOc1ccc(NC(=O)NC2CCS(=O)(=O)C2)cc1 (centres undefined)
screen / no. | 36
ALR H2O2 inh | 0
Calb FLC | 15
RanGTP-Imp inh | 5.8
LANA-H2B inh | -4.8
B2AR ag | 1
Vif A3G | -2%
HNF4A DNA FP | -0.4
